Source: PubChem BioAssay (Fisher Drug Discovery Resource Center)
NPYLR7 ag: activates Aedes aegypti NPYLR7 receptor. activation, % at 10 µM. AID 1259423. HEK293T NPYLR7/Galpha15, GCaMP6s calcium fluorescence. actives 0.15% (n = 270,000); in the data active = activation above about 40%;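 note: 0% = vehicle and 100% = reference agonist at the receptor; some compounds past the cut are filed as inactive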
NPYLR7 ag max-min: recorded beside NPYLR7 ag, whose call it bears; activation, %; measured here: Max-Min RFU normalised activation; some inactives read as strong as hits;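 span of the calcium signal over five minutes; 0% = vehicle and 100% = native peptide agonist; compound fluorescence can raise it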
* = called active by the depositor; & = joins results of further samples.

Preview (six entries):
SMILES	NPYLR7 ag	NPYLR7 ag max-min
CN(C)c1ccc(NC(=O)C2CCC2)cc1CN(C(=O)C1CC1)C1CC1	21	27
COCCOCC(=O)N1CCN(c2ccc(NC(=O)c3ccc(F)cc3)cn2)CC1	10	14
CC(C)c1nc(C(=O)O)nn1-c1ccccc1Cl	-2	-8
CC12CC(NC(=O)N1c1cccc(C(=O)O)c1)c1cc(Br)ccc1O2 (configuration not stated)	-8	-11
CNC(=O)CCCCCN(C)S(=O)(=O)c1ccc(C)cc1	-6	-7
c1ccc2c(c1)CCC2Cc1nc(C2CC2)n[nH]1 (configuration not stated)	3	-3

This part in full (from the top)
SMILES	NPYLR7 ag	NPYLR7 ag max-min
CN(C)c1ccc(NC(=O)C2CCC2)cc1CN(C(=O)C1CC1)C1CC1	21	27
COCCOCC(=O)N1CCN(c2ccc(NC(=O)c3ccc(F)cc3)cn2)CC1	10	14
CC(C)c1nc(C(=O)O)nn1-c1ccccc1Cl	-2	-8
CC12CC(NC(=O)N1c1cccc(C(=O)O)c1)c1cc(Br)ccc1O2 (configuration not stated)	-8	-11
CNC(=O)CCCCCN(C)S(=O)(=O)c1ccc(C)cc1	-6	-7
c1ccc2c(c1)CCC2Cc1nc(C2CC2)n[nH]1 (configuration not stated)	3	-3
CN(C)Cc1ccccc1C(O)c1ccccc1 (configuration not stated)	-8	-16
COCCNC(=O)C(NC(=O)c1ccccc1F)C1CCN(C(=O)C2CCCC2)CC1 (configuration not stated)	8	9
Cc1ccccc1C1=NOC2CN(c3ccc(S(C)(=O)=O)cc3)CC12 (configuration not stated)	-1	-4
Cc1cc(NC(=O)Cn2nc(C(C)C)c3cnn(-c4ccccc4C)c3c2=O)no1	7	2
CC1(C)O[C@@H]2C[C@@](OCc3ccccc3F)(C(=O)NCCN3CCOCC3)CC(OCc3cccc(Cl)c3)[C@@H]2O1 (some centres not stated)	18	16
Cc1ccc(NC(C)(C)C(=O)N2CCC(N3CCCC3=O)CC2)cc1	8	4
CCONS(=O)(=O)c1ccc(NC(=O)C(C)(C)C)cc1	6	2
O=C(Cc1ccc(Cl)s1)Nc1nnc(-c2cc3ccccc3o2)o1	6	2
CCCCNC(=O)C1(C)CCCCN1C(=O)c1c(C)noc1C (configuration not stated)	7	2
Cn1ncc(Oc2ccc(Cl)cc2)c(Nc2cccc(C(=O)NCc3ccccn3)c2)c1=O	2	8
Cc1ccc2[nH]c(O)c(N=NC(=O)C3CC3c3ccccc3)c2c1Br (configuration not stated)	-4	-7
CCCC(C)(CO)NCc1csc(Br)c1 (configuration not stated)	7	3
Cc1csc(N2CCc3ccccc32)n1	5	11
C=CCOC(=O)C1=C(C)N(C)C(=O)NC1c1cccc([N+](=O)[O-])c1 (configuration not stated)	-1	-6
Cc1c(NC(=O)c2cccc(I)c2)c(=O)n(-c2ccccc2)n1C	3	3
COCCCN(CC(=O)N(CCc1c[nH]c2ccccc12)Cc1ccc(C)cc1)C(=O)Nc1cc(OC)cc(OC)c1	9	16
COc1ccc(-c2nn(-c3ccc(F)cc3)c(OC(C)=O)c2-c2ccc(NC(=O)C3CCCC3)cc2)cc1OC	15	14
Cc1ccccc1CNC(=O)Cn1cc(-c2ccccc2)sc1=O	2	-3
COc1cc(OC)c(C2Nc3cccc4cccc(c34)N2)c(OC)c1	1	-3
CCOC(=O)C1=C(CC)NC2=C(C(=O)CC(C)(C)C2)C1c1cccnc1 (configuration not stated)	-1	-7
COc1ccc(C(=O)COC(=O)CCc2c[nH]c3ccccc23)cc1	-2	-3
N#Cc1ccccc1N1C(=O)C2C3C=CC(C3)C2C1=O (configuration not stated)	-1	0
C=CC(=O)Nc1ccc(-c2cccc(-c3cccc(OC)c3)n2)cc1	1	11
COCCn1cc(NC(=O)NC(c2ccccc2)c2nc(C)no2)cn1 (configuration not stated)	-1	2
CCc1nnc(NC(=O)C(=O)N2CCC3(CCCN(C)C3=O)C2)s1 (configuration not stated)	0	-5
COc1ccc(Cl)cc1NS(=O)(=O)c1cc(C(C)C)ccc1OC	3	-1
Cc1nc2n(n1)C(=O)C(C(c1ccc(C(C)C)cc1)N1CCC(C(N)=O)CC1)S2 (configuration not stated)	0	-5
CC1CCCC(C(=O)N2CCC(n3c(Cc4ccccc4)nc4ccccc43)CC2)C1 (configuration not stated)	2	-1
CN(CCc1ccccn1)C(=O)CCC1CCCN(C(=O)c2ccccn2)C1 (configuration not stated)	7	9
FC(F)(F)CN1CCNCC1	2	11
O=C(O)CCN1C(=O)C2CC=CCC2C1=O (configuration not stated)	-6	-8
COCC(=O)N1CCN(c2ccc(F)c(Cl)c2)C(=O)C1C (configuration not stated)	2	8
CCN(CC)c1onc(-c2ccccc2)c1CN(CCCOC)C(=O)c1ccc(Cl)cc1	5	9
CCc1cccc(OC2OC(CO)C(O)C(O)C2NC(C)=O)c1 (configuration not stated)	7	12

Compound profiles, from the list above. Screens in order: NPYLR7 ag, NPYLR7 ag max-min
Record of COc1ccc(C(=O)COC(=O)CCc2c[nH]c3ccccc23)cc1 : -2, -3
Record of COCC(=O)N1CCN(c2ccc(F)c(Cl)c2)C(=O)C1C (configuration not stated) : 2, 8
Record of COCCCN(CC(=O)N(CCc1c[nH]c2ccccc12)Cc1ccc(C)cc1)C(=O)Nc1cc(OC)cc(OC)c1 : 9, 16

(next part)
SMILES	NPYLR7 ag	NPYLR7 ag max-min
CC(C)NC(=O)[C@@H]1C[C@H](N)CN1C(=O)C1(c2ccc(F)cc2)CCOCC1	8	-2
COC1CCCN(C(=O)c2coc(CN3CCN(C/C=C/c4ccccc4)CC3)n2)C1 (configuration not stated)	3	1
Cc1ccc(NS(=O)(=O)N2CCCC(C)C2)c(C(=O)O)c1 (configuration not stated)	1	76
O=C(CSc1ccc2nnc(CCNC(=O)c3ccc(F)cc3)n2n1)NC1CCCCC1	3	-8
O=C(CCCCSc1nnc(-c2ccccc2)n1-c1ccc(Cl)c(Cl)c1)N1CCN(c2ccccc2Cl)CC1	-2	9
COc1ccc(OC)c(C2CCN(CC(=O)O)C2)c1 (configuration not stated)	18	8
COC(=O)COc1cc(C)c2c(c1C)C[C@H]([C@H](C)C(=O)O)CC2	21	16
Cc1nn2c(nc(N(C)CC(=O)NC3CC3)c3ccccc32)c1Cl	9	5
CC(C)N(C)Cc1nnnn1CC(=O)N1CCC(N2CCSCC2)CC1	11&9	3&4
COc1ccccc1N1CCN([C@H]2CN(C(=O)CCC(C)C)C[C@@H]2O)CC1	-3	-4
C=CCNC(=O)C(C#N)C(=O)c1cccc(Cn2nc(C)cc2C)c1 (configuration not stated)	5	2
O=C(NC1CC1)C(=O)N1CCN(S(=O)(=O)c2cc(Cl)cc(Cl)c2)CC1	-5	-5
CCOc1cc(C=C(C#N)C(=O)OC(C)C)cc(Cl)c1O	14	15
O=C(O)Cc1csc(NC(=O)CN(C(=O)c2ccc(Cl)cc2Cl)C2CC2)n1	-4	-13
COc1nc(-c2ccccc2C)n(-c2ccc(NC(=O)CCCCl)cc2)n1	5	11
Cc1ccc(C)c(Nc2nc(N3CCN(c4ccccc4)CC3)nc3nccnc23)c1	1	-1
CCOC(=O)CSC1=NC2=C(C(=O)CCC2)C(C)C1C#N (configuration not stated)	3	-1
COc1ccccc1NC(=O)C(C)OC(=O)[C@H](C)NC(C)=O (some centres not stated)	-4	-5
O=C(c1c(F)cccc1Cl)N1CCOC(COc2ccc(F)cc2)C1 (configuration not stated)	22	27
CCN1C(=O)NC(c2ccc(Cl)cc2Cl)C2=C1CN(CC(=O)N1CCN(c3cccc(C(F)(F)F)c3)CC1)C2=O (configuration not stated)	-2	8
Oc1oc(-c2ccccc2F)nc1C=Nc1ccc2ccccc2c1	-3	-7
Cc1cccnc1C(NC(=O)C1CCN(Cc2cn(C)c3ccccc23)CC1)c1ccc(Cl)cc1 (configuration not stated)	5	-8
C#CCOCC(O)CN(Cc1cccc(C)c1)CC1CCCO1 (configuration not stated)	-2	5
COC(=O)[C@]1(C)C[C@H](C(=O)N2CCCOCC2)[C@H](c2ccccc2Cl)N1C	6	3
CCc1c(C(=O)Cn2cc(Cl)c(=O)[nH]c2=O)[nH]c(C)c1C(C)=O	4	4
O=C(NCc1ccccn1)c1csc(CSc2nnc(-c3cccnc3)n2-c2cccc(Cl)c2)n1	-4	0
O=C(NCc1noc(Cc2cccs2)n1)c1cnc2ccccn12	12	10
CC(Nc1ccc(N2CCCC2=O)c(Cl)c1)C(=O)Nc1ccc(N2CCOCC2)cc1 (configuration not stated)	0	-3
Cc1cccc(CN2CCCC3(CCN(Cc4cnn(C(C)C)c4)C3)C2)c1 (configuration not stated)	-2	-5
Cc1nc2ccc(F)cc2n1C1CCN(C(=O)CCCc2ccccc2)CC1	-7	-12
O=[N+]([O-])c1ccccc1C1Nc2ccccc2-c2nc3ccccc3n21 (configuration not stated)	5	7
CN(C)c1nn(CC(=O)NCc2ccccc2Cl)cc1-c1ccccc1	-8	-10
CC(C)(C)OC(=O)NC(C)(C(N)=O)c1cccc(C(F)(F)F)c1 (configuration not stated)	7	5
CCNc1ncc(CN2CCN(C)C3(CCN(C(=O)COC)CC3)C2)cn1	-4	-8
COc1ccc([N+](=O)[O-])cc1N	-5	-6
O=C(NCc1ccco1)c1cnn2c1NC(c1cccs1)CC2C(F)(F)F (configuration not stated)	-4	-5
O=C(NCC(=O)N1CCOC(c2ccccc2)C1)c1ccco1 (configuration not stated)	26	37
CC1(C)CC(=O)CC(C)(C)N1C(=O)CSc1nncn1-c1ccccc1	5	7
CCCCNC(=O)C1(C)CCCCN1C(=O)c1ccc2ccccc2n1 (configuration not stated)	2	0
O=C(NCC1CCN(c2nc(Cc3ccc(Cl)cc3)ns2)CC1)c1ccc([N+](=O)[O-])cc1	-11	-16

Given comma-delimited: 3 of the compounds above
SMILES,NPYLR7 ag,NPYLR7 ag max-min
COc1ccc(Cl)cc1NS(=O)(=O)c1cc(C(C)C)ccc1OC,3,-1
Cc1nc2n(n1)C(=O)C(C(c1ccc(C(C)C)cc1)N1CCC(C(N)=O)CC1)S2 (configuration not stated),0,-5
CC1CCCC(C(=O)N2CCC(n3c(Cc4ccccc4)nc4ccccc43)CC2)C1 (configuration not stated),2,-1

More results follow:
SMILES	NPYLR7 ag	NPYLR7 ag max-min
Cc1ccc(C2(O)CCN(C(=O)Cc3cn4ccsc4n3)CC2)nc1	10	5
CNC(=O)c1cc(S(=O)(=O)Nc2ccon2)cs1	3	3
CCN(CC)c1nc(SC)ncc1CNCCc1cccs1	-1	-5
CCOCCn1c(=O)c2c(nc3n(CC4CCCO4)c(C)cn23)n(C)c1=O (configuration not stated)	0	-4
CN(C)c1ccc(C2CC(c3ccc(Br)cc3)=NN2S(C)(=O)=O)cc1 (configuration not stated)	13	4
COCCCN(CC(=O)N(CCOC)Cc1cccn1C)C(=O)Nc1c(C(C)C)cccc1C(C)C	-9	-4
CO[C@H]1C[C@@H]2C[C@H](c3ccccn3)OC[C@]2(O)[C@@H]1N1CCN(c2ccc(C(F)(F)F)cc2)CC1	4	18
CCCCC(=O)Nc1nn(C)c2nc3c(C)cccc3cc12	-3	-5
CC(=O)c1ccc(NC(=O)C(C)Sc2nnc3cc(C)c4ccccc4n23)cc1 (configuration not stated)	2	-2
Cc1ccccc1CC1(CO)CCCN(C(=O)CCC(=O)c2ccccc2)C1 (configuration not stated)	13	14
CC(C(=O)NCc1cc(=O)[nH]c2ccccc12)c1cccs1 (configuration not stated)	6	3
Cc1ccc(C2(O)CCN(C(=O)C3CCOC3)CC2)nc1 (configuration not stated)	5	3
COc1ccc(C2(C(=O)N3CCCC4(CC3)CNC(=O)O4)CCCC2)cc1 (configuration not stated)	5	1
c1cc(-c2noc(CN3CCNCC3)n2)cs1	0	0
OCC1(Cc2ccccc2)CCCN(Cc2ccc(OC(F)(F)F)cc2)C1 (configuration not stated)	-9	-13
O=C(C1CN(C(=O)Cc2n[nH]c(=O)c3ccccc23)c2ccccc2O1)N1CCOCC1 (configuration not stated)	6	9
Cc1cc(C)n(CC(=O)N2CCC3(CN(C)C(=O)O3)C2)c(=O)n1 (configuration not stated)	20	10
CC1C=CCC2C(=O)N(c3ccc4c(c3)OCO4)C(=O)C12 (configuration not stated)	17	30
COCCNC(=O)C1Cc2c(-c3ccc(NC(C)=O)cc3)ccnc2O1 (configuration not stated)	-13	-14
CCCCN(Cc1cccn1Cc1cccc(C)c1)C(=O)CN(CCOC)C(=O)c1ccc([N+](=O)[O-])cc1	7	7
Cc1cc(-n2c(C)cc(C(=O)CSc3nnc(Cc4csc(C)n4)o3)c2C)no1	3	11
CC1(C(=O)NS(=O)(=O)c2ccccc2Cl)CCN1C(=O)Cc1cccs1 (configuration not stated)	0	2
CCCCCC(=O)NN=Cc1ccc(N(C)C)cc1	3	0
Nc1nnc(SCCN2CCSCC2)s1	5	1
CCCCNC(=O)N1CCN(c2nc(Cc3ccccc3)nc3sc4c(c23)CCN(CC)C4)CC1	-3	-2
Cc1cc(C)c(C#N)c(Nc2cccc(Br)c2)n1	-2	-4
COc1cccc(C2C(=C(O)c3ccc(F)cc3)C(=O)C(=O)N2CCCn2ccnc2)c1OC (configuration not stated)	-3	-10
CCOc1cccc2cc(C(N)=O)c(=Nc3cccc4ccccc34)oc12	-4	-9
O=C(O)C1Sc2[nH]c(=O)sc2C2c3cc(Cl)cc(Cl)c3OC(=O)C12 (configuration not stated)	7	6
CC(C(=O)NCC1(c2ccccc2)CCCC1)N1CCCC1 (configuration not stated)	-2	0
CC(C)N1CCN(C(=O)c2ccccc2N2CCC(NC(=O)c3ccc(F)cc3)CC2)CC1	0	1
Cc1cc(C(=O)N(C)Cc2nc3ccccc3c(=O)[nH]2)c(C)n1C1CC1	4	1

Among those listed so far, these have a tert-butyl group:
SMILES	NPYLR7 ag	NPYLR7 ag max-min
CCONS(=O)(=O)c1ccc(NC(=O)C(C)(C)C)cc1	6	2
CC(C)(C)OC(=O)NC(C)(C(N)=O)c1cccc(C(F)(F)F)c1 (configuration not stated)	7	5

These rows are one share of the data. The share of hits here may be higher or lower than overall.
